TRPV1 potentiator: enhances activation of the human vanilloid receptor TRPV1. potentiation, % at 8.33 µM. TRPV1-expressing cells, Fluo-8 calcium influx, capsaicin EC20 potentiation; host cell line not named in the record; control for the full effect not named in the record. 320,000 tested, 0.02% active. Q8NER1; active means potentiation above 80%; inconclusive means 30% to 80%; inactive means below 30%; also: 0% is about no effect
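TRPV1-expressing cells were cultured overnight at 35.5C and loaded with Fluo-8 calcium dye for 40 to 90 min at room temperature. After a 10 s baseline, compound was added and calcium influx was read kinetically for 3 min (ex 480/em 520 nm).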
TRPML1 ag: human mucolipin-1 channel agonism | Q9GZU1 | TRPML1-expressing cells, Ca2+ dye fluorescence, FDSS; host cell line not named in the record; reference of the full effect not given here | activation, % (no concentration beside the values) | 410,000 tested, 0.12% active | AID 624414; in the data active = activation above about 50%; inconclusive = about 30% to 50%; inactive = below about 30%; also: 0% is about no effect; the text of the record puts the active cut at 80%
Target sequence (Q9GZU1 whole entry, looked up): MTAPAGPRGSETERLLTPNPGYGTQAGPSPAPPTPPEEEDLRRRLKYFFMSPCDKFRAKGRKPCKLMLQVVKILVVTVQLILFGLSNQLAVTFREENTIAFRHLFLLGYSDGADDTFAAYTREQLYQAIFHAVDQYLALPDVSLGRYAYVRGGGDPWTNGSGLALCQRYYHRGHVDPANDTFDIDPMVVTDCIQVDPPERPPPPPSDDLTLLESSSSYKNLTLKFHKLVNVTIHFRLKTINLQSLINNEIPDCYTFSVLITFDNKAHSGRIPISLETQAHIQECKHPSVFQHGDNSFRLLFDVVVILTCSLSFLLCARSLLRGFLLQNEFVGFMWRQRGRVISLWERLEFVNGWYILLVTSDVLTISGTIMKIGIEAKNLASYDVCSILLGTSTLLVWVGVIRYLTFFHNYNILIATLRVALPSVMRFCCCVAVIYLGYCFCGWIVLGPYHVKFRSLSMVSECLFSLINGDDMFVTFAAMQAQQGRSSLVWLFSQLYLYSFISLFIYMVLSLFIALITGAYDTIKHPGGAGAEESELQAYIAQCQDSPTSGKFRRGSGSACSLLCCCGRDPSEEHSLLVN
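Kinetic FDSS Ca2+ read in Tet-induced TRPML1-DL cells (ABD Ca8 dye plus quencher, 45-90 min RT loading): baseline, then compound, then 110 s agonist window; EC80 agonist 54-4 at 4uM final added afterwards for a 110 s antagonist window.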
Six1-Eya2 inh: Six1/Eya2 interaction inhibition | Q15475+O00167 | AlphaScreen GST-Six1/His-Eya2 binding, biochemical; stronger effect = lower value; control for the full effect not named in the record | activity change, % (test concentration not listed) | 360,000 tested, 0.56% active | AID 651725; in the data active = activity change below about -65%; inconclusive = about -30% to -65%; inactive = above about -30%; also: % is scaled to controls: 0 for no effect and ±100 for the full control effect; compound concentration not given in the record
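Homogeneous AlphaScreen proximity assay pairing GST-Six1 with His-tagged Eya2 (added as 5X mix: 250 nM and 500 nM) in 50 mM Tris pH 8.0, 300 mM NaCl, 1 mM TCEP. Glutathione donor and nickel acceptor beads; 1 h, 37 °C, dark.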
TRPML1 blocker: human mucolipin-1 channel inhibition | 390,000 tested, 0.02% active | TRPML1-inducible cells, Ca2+ dye fluorescence, FDSS; stronger effect = lower value; inhibition of EC80 agonist-evoked calcium signal | activity change, negative = inhibition, % (no concentration beside the values); in the data active means activity change below about -50%; inconclusive means about -30% to -50%; inactive means above about -30%;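 also: stimulus is agonist 54-4 at its EC80 concentration; % is scaled to controls: 0 for no effect and ±100 for the full control effect; compound concentration not given in the record; the text of the record puts the active cut at -80%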
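Tet-induced TRPML1-DL cells loaded with Ca8 no-wash calcium dye were read kinetically on FDSS. Compound addition was followed by EC80 agonist 54-4 (4 uM final); inhibition was read over 110 s.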
D2 PAM: positive allosteric modulators of human D2 dopamine receptor | P14416 | DiscoveRx D2 beta-arrestin cells, luminescence, 90 min; 100% = 57 uM dopamine signal | potentiation, % (concentration not given with the values) | 360,000 tested, 0.23% active | AID 624464; active = potentiation of 50% or more; inconclusive = 30% to 50%; inactive = 30% or less;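 also: compound concentration not given in the record; tested on top of an EC20 dose of dopamine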
Target sequence (P14416 whole entry, looked up): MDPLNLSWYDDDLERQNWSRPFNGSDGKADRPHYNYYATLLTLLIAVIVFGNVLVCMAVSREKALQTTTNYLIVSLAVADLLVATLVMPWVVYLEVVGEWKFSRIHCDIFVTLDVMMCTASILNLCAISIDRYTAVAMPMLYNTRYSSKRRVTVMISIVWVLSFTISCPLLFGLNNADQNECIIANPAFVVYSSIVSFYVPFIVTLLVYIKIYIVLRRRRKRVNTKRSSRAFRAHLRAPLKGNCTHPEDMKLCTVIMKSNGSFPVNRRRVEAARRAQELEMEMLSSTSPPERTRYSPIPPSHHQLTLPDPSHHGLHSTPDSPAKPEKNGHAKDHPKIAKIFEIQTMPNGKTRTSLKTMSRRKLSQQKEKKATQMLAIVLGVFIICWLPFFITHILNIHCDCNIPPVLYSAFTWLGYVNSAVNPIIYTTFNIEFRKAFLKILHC
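D2 cells co-treated with compound plus 50 nM dopamine (EC20) for 90 min at 37 deg C to detect potentiation. Beta-arrestin recruitment was read as enzyme-fragment luminescence after 1 h at ambient temperature. Full response was set by 57 uM dopamine.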
CtBP-E1A inh: CtBP/E1A binding inhibition. AlphaScreen GST-E1A/His-CtBP binding, 1536-well; stronger effect = lower value; control for the full effect not named in the record. activity change, % (concentration not given with the values). 340,000 tested, 0.49% active. AID 651724; in the data active means activity change below about -65%; inconclusive means about -30% to -65%; inactive means above about -30%; also: % is scaled to controls: 0 for no effect and ±100 for the full control effect
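In 5 uL wells, 23 nL compound meets equimolar GST-E1A and His-CtBP (5X stock 125 nM each) for 2 h, 37 °C. Beads (5X, 50 ug/mL) then 1 h, 37 °C, dark.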
Starred values were filed as active, the others as inactive; & = joins results of further samples. Hits appear at their usual frequency, and some 0.95% of all compounds hit somewhere here.

How did COC(=O)c1cccc(Nc2ncnc3sccc23)c1 do in these assays?
TRPV1 potentiator: -9; TRPML1 ag: 0.4; Six1-Eya2 inh: 0; TRPML1 blocker: 22; D2 PAM: -11; CtBP-E1A inh: 1

What do the screens show for `Cc1nc2ccc(NC(=O)c3cc([N+](=O)[O-])cc([N+](=O)[O-])c3Cl)cc2s1`?
TRPV1 potentiator: 1; TRPML1 ag: -0.4; Six1-Eya2 inh: -23; TRPML1 blocker: 6; D2 PAM: 63*; CtBP-E1A inh: -4

What do the screens show for `CCC(Sc1ccccn1)C(=O)Nc1nnc(C)s1` (stereo not drawn)?
TRPV1 potentiator: inconclusive; TRPML1 ag: -0.7; Six1-Eya2 inh: 4; TRPML1 blocker: 12; D2 PAM: 11; CtBP-E1A inh: -4

Results for Cc1cc(NC(=O)Cc2ccccc2)c2ccccc2n1 ?
TRPV1 potentiator: -5; TRPML1 ag: 1.3; Six1-Eya2 inh: -1; TRPML1 blocker: 2; D2 PAM: 1; CtBP-E1A inh: 5

What do the screens show for `COC(=O)c1cc(C(=O)OC)n(Cc2ccc(Cl)cc2Cl)n1`?
TRPV1 potentiator: 2; TRPML1 ag: 1.4; Six1-Eya2 inh: 9; TRPML1 blocker: 57; D2 PAM: -1; CtBP-E1A inh: 8

How did Cc1ccccc1OCC1Cn2c(nc3c2c(=O)[nH]c(=O)n3C)O1 (stereo not drawn) do in these assays?
TRPML1 ag: -0.5; Six1-Eya2 inh: -4; TRPML1 blocker: 3; D2 PAM: -5; CtBP-E1A inh: -2

What do the screens show for `CN(C)CCn1c(=N)n(CC(O)c2ccc(Cl)c(Cl)c2)c2ccccc21` (stereo not drawn)?
TRPV1 potentiator: 2; TRPML1 ag: 1.3; Six1-Eya2 inh: 10; TRPML1 blocker: -12; D2 PAM: -2; CtBP-E1A inh: -21

How did O=C(Nc1ccc(OC(F)F)cc1)c1cc(S(=O)(=O)N2CCOCC2)ccc1F do in these assays?
TRPV1 potentiator: -14; TRPML1 ag: -0.4; Six1-Eya2 inh: 0; TRPML1 blocker: -9; D2 PAM: -10; CtBP-E1A inh: 1

How did S=C(Nc1ccccc1)N1CCOCC1 do in these assays?
TRPV1 potentiator: 5; TRPML1 ag: 0.0; Six1-Eya2 inh: 8; TRPML1 blocker: -11; D2 PAM: -1; CtBP-E1A inh: 1

Results for Cc1nnc(N2C(=O)C(=O)/C(=C(/O)c3ccc4c(c3)OCCO4)C2c2cccc([N+](=O)[O-])c2)s1 (stereo not drawn) ?
TRPML1 ag: 1.2; Six1-Eya2 inh: -5; TRPML1 blocker: 18; D2 PAM: -3; CtBP-E1A inh: 2

Results for CC1CCCCC1NC(=O)NC(=O)CCl (stereo not drawn) ?
TRPV1 potentiator: 7; TRPML1 ag: -0.2; Six1-Eya2 inh: 10; TRPML1 blocker: -15; D2 PAM: -5; CtBP-E1A inh: -13

How did O=C(NCc1ccccn1)c1ccc(NC(=O)c2ccco2)cc1 do in these assays?
TRPV1 potentiator: -2; TRPML1 ag: 0.2; Six1-Eya2 inh: 0; TRPML1 blocker: 10; D2 PAM: 0; CtBP-E1A inh: -2

What do the screens show for `CCCNC(=O)c1cc2c(c(-c3cccc(-c4cc5ccccc5o4)c3)n1)[C@@H](CCO)N(C(=O)NC(C)C)C2`?
TRPML1 ag: 0.3; Six1-Eya2 inh: -2; CtBP-E1A inh: -1

What do the screens show for `COc1ccc(NC(=O)C(=O)c2cn(CC(=O)N3CCOCC3)c3ccccc23)cc1OC`?
TRPV1 potentiator: -8; TRPML1 ag: -0.5; Six1-Eya2 inh: -2; TRPML1 blocker: -3; D2 PAM: 0; CtBP-E1A inh: -1

How did CCCn1c(C)cc(/C=C(\C#N)C(=O)OCC(=O)Nc2ccc(OC)c(Cl)c2)c1C do in these assays?
TRPV1 potentiator: 19; TRPML1 ag: 1.2; Six1-Eya2 inh: -3; TRPML1 blocker: -18; D2 PAM: -17; CtBP-E1A inh: -3

Results for CCC(=O)Nc1nc(C)c(C(=O)NC2CCCCC2)s1 ?
TRPV1 potentiator: 9; TRPML1 ag: -0.1; Six1-Eya2 inh: 1; TRPML1 blocker: -6; D2 PAM: -4; CtBP-E1A inh: 3

How did Cc1ccc(-c2nc3ccccc3c(=O)n2O)cc1 do in these assays?
TRPV1 potentiator: inconclusive; TRPML1 ag: 1.1; Six1-Eya2 inh: -4; TRPML1 blocker: 32; D2 PAM: 1; CtBP-E1A inh: 5

How did CCOC(=O)C1CCCN(S(=O)(=O)c2cc(OCC(=O)NC3CCCCC3)c(C)cc2Cl)C1 (stereo not drawn) do in these assays?
TRPV1 potentiator: 2; TRPML1 ag: -0.6; Six1-Eya2 inh: 8; TRPML1 blocker: -5; D2 PAM: 4; CtBP-E1A inh: -2

What do the screens show for `CC(/C=C/c1ccccc1)=N\NC(=O)CNC(=O)c1ccccc1Cl`?
TRPV1 potentiator: 12; TRPML1 ag: 2.3; Six1-Eya2 inh: -4; TRPML1 blocker: 6; D2 PAM: -3

How did CC1S/C(=N/N=C/c2ccco2)N(Cc2ccccc2)C1=O (stereo not drawn) do in these assays?
TRPV1 potentiator: 0; TRPML1 ag: -1.2; Six1-Eya2 inh: 0; TRPML1 blocker: 13; D2 PAM: -18

Molecules shown so far that have a nitro group on carbon (two):
What do the screens show for `Cc1nc2ccc(NC(=O)c3cc([N+](=O)[O-])cc([N+](=O)[O-])c3Cl)cc2s1`?
TRPV1 potentiator: 1; TRPML1 ag: -0.4; Six1-Eya2 inh: -23; TRPML1 blocker: 6; D2 PAM: 63*; CtBP-E1A inh: -4

Results for Cc1nnc(N2C(=O)C(=O)/C(=C(/O)c3ccc4c(c3)OCCO4)C2c2cccc([N+](=O)[O-])c2)s1 (stereo not drawn) ?
TRPML1 ag: 1.2; Six1-Eya2 inh: -5; TRPML1 blocker: 18; D2 PAM: -3; CtBP-E1A inh: 2

Next entries follow.
Results for CC1CCN(CC(=O)N2CCCc3c2c(=O)oc2ccc(OCc4ccccc4)cc32)CC1 ?
TRPV1 potentiator: -10; TRPML1 ag: 1.8&3.1; Six1-Eya2 inh: -21; TRPML1 blocker: 16&66; D2 PAM: -19; CtBP-E1A inh: -19

What do the screens show for `CCOc1ccccc1NC(=O)COn1nnc2ccccc21`?
TRPV1 potentiator: 9; TRPML1 ag: -0.1; Six1-Eya2 inh: 3; TRPML1 blocker: -14; D2 PAM: -4; CtBP-E1A inh: 11

How did CCOC(=O)C1=C(C)N[C@@]2(O)c3ccccc3C(=O)[C@@]12O do in these assays?
TRPV1 potentiator: -9; TRPML1 ag: 0.1; Six1-Eya2 inh: 2; TRPML1 blocker: 3; D2 PAM: -17; CtBP-E1A inh: 5

Results for Cc1cccn2c(=O)c(/C=N/O)c(N3CCCCC3)nc12 ?
TRPV1 potentiator: -12; TRPML1 ag: -0.8; Six1-Eya2 inh: 0; TRPML1 blocker: -3; D2 PAM: -2; CtBP-E1A inh: 6

How did COc1ccc(OC(=O)CN2C(=O)C3C4CCC(C4)C3C2=O)cc1 (stereo not drawn) do in these assays?
TRPV1 potentiator: 14; TRPML1 ag: 0.7; Six1-Eya2 inh: 12; TRPML1 blocker: 4; D2 PAM: -12; CtBP-E1A inh: -6

What do the screens show for `CCOC(=O)CNC(=O)c1sc(NC(=O)/C=C/c2ccccc2)nc1C`?
TRPV1 potentiator: inconclusive; TRPML1 ag: -0.6; Six1-Eya2 inh: 12; TRPML1 blocker: -11; D2 PAM: -4

Results for CCCCCCC(=O)Nc1nc(C)c(-c2csc(Nc3cc(Cl)ccc3OC)n2)s1 ?
TRPV1 potentiator: 0; TRPML1 ag: -0.6; Six1-Eya2 inh: 2; TRPML1 blocker: -6; D2 PAM: -13; CtBP-E1A inh: -2

How did CSc1nnc2n(C)c3c(c(=O)n12)C1(CCCC1)Cc1ccccc1-3 do in these assays?
TRPV1 potentiator: -8; TRPML1 ag: -0.5; Six1-Eya2 inh: 7; TRPML1 blocker: -3; D2 PAM: -6; CtBP-E1A inh: 7

Results for COC(=O)Cn1cnc2c(cnn2-c2ccc(C)cc2)c1=O ?
TRPV1 potentiator: -27; TRPML1 ag: -0.9; Six1-Eya2 inh: 1; TRPML1 blocker: 7; D2 PAM: 0; CtBP-E1A inh: -1

Results for CC(C)Oc1ccc(S(=O)(=O)N2CCOCC2)cc1NC(=O)CC1CCCC1 ?
TRPV1 potentiator: -6; TRPML1 ag: 0.4; Six1-Eya2 inh: 9; TRPML1 blocker: -17; D2 PAM: -4; CtBP-E1A inh: -9

Results for CN(Cc1ccccc1)C(=S)Nc1ccc(OC(F)F)cc1 ?
TRPV1 potentiator: -1; TRPML1 ag: -0.3; Six1-Eya2 inh: -10; TRPML1 blocker: -20; D2 PAM: -12; CtBP-E1A inh: -9

Results for COc1ccc(OC)c(NC(=O)CCn2cccc2)c1 ?
TRPV1 potentiator: 7; TRPML1 ag: 0.1; Six1-Eya2 inh: -13; TRPML1 blocker: -5; D2 PAM: -6; CtBP-E1A inh: 1

Results for C=Cn1cc(CNC[C@H]2O[C@@H](n3ccc(N)nc3=O)[C@H](O)[C@@H]2O)c(C)n1 ?
TRPML1 ag: 0.3; Six1-Eya2 inh: 6; TRPML1 blocker: 12; D2 PAM: 2; CtBP-E1A inh: 6

What do the screens show for `CC1CN(C(=O)CCC(=O)NCCCc2ccccc2)c2ccccc2O1` (stereo not drawn)?
TRPV1 potentiator: 5; TRPML1 ag: -0.5; Six1-Eya2 inh: 2; TRPML1 blocker: -7; D2 PAM: -4; CtBP-E1A inh: 6

How did O=C(CN1CCCCC1)Nc1cc(Cl)ccc1Cl do in these assays?
TRPV1 potentiator: -6; TRPML1 ag: 2.2; Six1-Eya2 inh: 6; TRPML1 blocker: 20; D2 PAM: -18; CtBP-E1A inh: 4

Results for CN(C(=O)c1ccccc1C(=O)c1ccccc1)C1CCS(=O)(=O)C1 (stereo not drawn) ?
TRPV1 potentiator: 5; TRPML1 ag: 0.5; Six1-Eya2 inh: 2; TRPML1 blocker: 35; D2 PAM: -16; CtBP-E1A inh: 0

What do the screens show for `Cc1ccc(NC(=O)NC2CCCCCCC2)cc1`?
TRPV1 potentiator: -6; TRPML1 ag: 0.4; Six1-Eya2 inh: -6; TRPML1 blocker: 25; D2 PAM: -8; CtBP-E1A inh: 1

What do the screens show for `CC(=O)c1cc(C#N)c(N2CCCCC2)nc1C`?
TRPV1 potentiator: -3; TRPML1 ag: 3.2; Six1-Eya2 inh: 1; TRPML1 blocker: 36; D2 PAM: 3; CtBP-E1A inh: 0

How did CS(=O)CC(O)(c1ccc(F)cc1)C1CC1 (stereo not drawn) do in these assays?
TRPML1 ag: -0.3; Six1-Eya2 inh: -7; TRPML1 blocker: 10; D2 PAM: -6; CtBP-E1A inh: -1

What do the screens show for `O=C(Nc1ccc(C(=O)NC2CCCCC2)cc1)c1cccnc1`?
TRPV1 potentiator: -18; TRPML1 ag: -0.6; Six1-Eya2 inh: 31; TRPML1 blocker: 7; D2 PAM: 1; CtBP-E1A inh: 3

Source: PubChem BioAssay
